GIV Gai3 FP: inhibitors of GIV peptide binding to Galpha-i3, primary screen, biochemical, fluorescence polarization, FITC-GIV GBA peptide, rat Galphai3 | 210,000 tested, 0.42% active | percent of control (FP), % (concentration not given with the values) | AID 1224905, 2016 | Guanine nucleotide-binding protein G(i) subunit alpha-3 (Rattus norvegicus), P08753 | 90 min; active compounds read low; scaled: aluminum fluoride 0%, vehicle 100%;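 active = replicate mean at 85% of control or lower, very high polarization wells dropped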;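 also: wells of about 15 µL received 100 nL stock; the first replicate is given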
Target sequence (P08753 whole entry, looked up): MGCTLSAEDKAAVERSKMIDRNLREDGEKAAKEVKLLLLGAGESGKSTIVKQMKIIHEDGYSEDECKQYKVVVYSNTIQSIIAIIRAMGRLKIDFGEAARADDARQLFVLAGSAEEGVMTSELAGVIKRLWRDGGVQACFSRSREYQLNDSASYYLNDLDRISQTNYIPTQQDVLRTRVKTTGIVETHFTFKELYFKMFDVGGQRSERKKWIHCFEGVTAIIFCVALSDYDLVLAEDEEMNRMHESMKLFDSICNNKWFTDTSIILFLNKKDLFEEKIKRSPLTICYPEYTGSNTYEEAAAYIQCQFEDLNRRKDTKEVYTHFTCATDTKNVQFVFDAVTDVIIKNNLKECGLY
HCMV NEC inh: inhibitors of HCMV UL50-UL53 interaction, biochemical, HTRF; normalized percent inhibition; HCMV UL50-UL53 nuclear egress complex (human cytomegalovirus); 190,000 tested, 0.15% active; AID 1918969, 2023; inhibition, % (concentration not given with the values);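 active = both replicates at 50% or more, plus weaker picks with an unusually low signal ratio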;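 also: stock transfer was 100 nL into about 20 µL; 0% = negative control wells and 100% = wells with untagged competitor protein; inactives centre near -12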
Sa growth inh: S. aureus growth inhibition at 42 and 30 °C, primary screen, LtaS inhibitor project, RN4220, two temperatures. OD600, 20 h, 42 °C; active compounds read low. relative growth, % (concentration not given with the values). 170,000 tested, 0.53% active. AID 720641, 2013;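 active = growth at 42 °C up to 50% and 20 or more points under that at 30 °C, or under 10% at both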;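 also: 300 nL library stock went into each well; scaled to the means of positive and negative controls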
Sa growth inh second temp: further read-out of Sa growth inh, marked with its call; relative growth, %; measured here: growth at 30 °C;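 optical density after 20 h as mean of two plates; 100% = untreated growth and lower means inhibition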
Active calls of the source: *; / = no result given.

SMILES	GIV Gai3 FP	HCMV NEC inh	Sa growth inh	Sa growth inh second temp
O=C(O)C(c1ccccc1)c1cn2cc(Cl)ccc2n1 (stereo not drawn)	/	-30	104	79
COc1ccc(-c2nn3c(-c4ccc5ccccc5n4)nnc3s2)cc1	111	-42	/	/
Cc1ccc(C(=O)NCC2CCCO2)o1 (stereo not drawn)	/	2	91	97
O=C(NN=C1CCCC1)c1cc(-c2ccccc2)n[nH]1	110	19	102	116
CCNC(=O)C(C)Oc1ccc(Cl)c(C)c1 (stereo not drawn)	103	-2	104	98
CC(=O)Nc1c(=O)[nH]n2c(C)cc(C)nc12	/	-12	101	89
O=C1CCCc2cc(S(=O)(=O)N3CCN(c4ncccn4)CC3)ccc2N1	104	-30	/	/
O=C(Nc1cnn(C23CC4CC(CC(C4)C2)C3)c1)c1cc(-c2ccccc2F)no1	102	14	119	92
O=C(O)CSc1ccc2nnc(-c3cccnc3)n2n1	100	-23	84	89
CCOC(=O)N(c1ccccc1)S(=O)(=O)c1ccc(Cl)cc1	/	-1	125	89
O=C(NCC1CCCO1)Nc1c[nH]c2c(Cl)cccc2c1=O (stereo not drawn)	104	-16	106	86
N=C1C(c2nc3ccccc3s2)=C(O)CN1CCCN1CCCC1=O	105	-8	/	/
CCCCn1c(=O)c2sccc2n2c(SCC(=O)N3CCCCC3C)nnc12 (stereo not drawn)	100	27	/	/
CCS(=O)(=O)c1ccc2oc(=S)n(CN(C)C3CCCCC3)c2c1	/	-13	61	85
COc1ccc(OC)c(-c2cc(C(=O)NCCCn3ccnc3)no2)c1	102	-10	103	86

An excerpt of these results, as a markdown table.
| structure | GIV Gai3 FP | HCMV NEC inh | Sa growth inh | Sa growth inh second temp |
| --- | --- | --- | --- | --- |
| O=C(O)CSc1ccc2nnc(-c3cccnc3)n2n1 | 100 | -23 | 84 | 89 |
| COc1ccc(-c2nn3c(-c4ccc5ccccc5n4)nnc3s2)cc1 | 111 | -42 | / | / |
| CCCCn1c(=O)c2sccc2n2c(SCC(=O)N3CCCCC3C)nnc12 (stereo not drawn) | 100 | 27 | / | / |
| CCOC(=O)N(c1ccccc1)S(=O)(=O)c1ccc(Cl)cc1 | / | -1 | 125 | 89 |
| O=C(NCC1CCCO1)Nc1c[nH]c2c(Cl)cccc2c1=O (stereo not drawn) | 104 | -16 | 106 | 86 |

Remaining list, next part.
SMILES	GIV Gai3 FP	HCMV NEC inh	Sa growth inh	Sa growth inh second temp
CS(=O)(=O)N1CCN(c2c(Cl)cncc2Cl)CC1	112	-1	108	76
O=S(=O)(c1ccc(Oc2ccc3ccccc3c2)nc1)N1CCOCC1	/	-4	113	88
Cc1ccc(NS(=O)(=O)c2cn(C)c(C)n2)c(C)c1	106	-16	/	/
Cc1ccc(C2=N/C(=C\C(Br)=C\c3ccccc3)C(=O)O2)cc1[N+](=O)[O-]	103	-56	/	/
CCN1CCCc2cc(CN(C(=S)Nc3ccc(OC)cc3)C3CCCC3)ccc21	104	/	110	82
CN1C(=O)C(c2c(-c3ccccc3)[nH]c3[nH]c(=O)[nH]c(=O)c23)c2ccccc21 (stereo not drawn)	103	-8	/	/
S=c1nccc(-c2csc(COc3ccccc3Cl)n2)[nH]1	105	-59	121	85
CCOc1ccc(CNC(=O)CCCn2ccc3cc(S(=O)(=O)N4CCCC4)ccc32)cc1	101	-3	/	/
CCCNC(=O)Nc1ccc(-c2noc(-c3ccc(N(C)C)cc3)n2)cc1	104	-3	/	/
CC(=O)Nc1ccc2c(c1)nc1n2CCN(C(C)c2ccccc2)C1 (stereo not drawn)	105	-28	79	67
N#Cc1cc(-c2nc3ccccc3[nH]2)c(N)n2c1nc1ccccc12	136	/	78	45
Cc1ccc(OC(=O)c2ccco2)c(-n2nc3ccccc3n2)c1	103	-7	90	69
COc1ccccc1CNC(=O)CCc1c(C)c2ccc(OC)c(C)c2oc1=O	97	-32	98	86
O=c1cc(-c2ccccc2)nc(Cc2c(Cl)cccc2Cl)[nH]1	100	-6	111	97
CS(=O)(=O)N(CC(=O)Nc1ccc2c(c1)OCCO2)c1ccccc1	100	-5	85	75
CC(C)NCc1c(O)c(Br)cc2oc3c(c12)CCCC3	105	-6	103	89
c1ccc(CNC2C3CC4CC(C3)CC2C4)nc1 (stereo not drawn)	102	/	87	93
Cc1noc(Cn2c(=O)c3cc4c(cc3n(CC(=O)NCc3ccccc3)c2=O)OCO4)n1	108	-4	/	/
C=CCNC(=O)c1ccc2c(=O)n(Cc3ccco3)c(=S)[nH]c2c1	101	-12	99	88
CC1CN(CC(=O)Nc2ccc3c(c2)CCC3)CC(C)O1 (stereo not drawn)	/	-21	109	93
O=C(c1ccc(F)cc1)N1c2ncnn2C2(CCCCC2)[C@@H]2CCCC[C@@H]21	98	-17	102	84
CCOc1ccc(S(=O)(=O)N2CCCC2)cc1-c1nc(C)no1	110	5	/	/
Cc1[nH]nc(N)c1C#N	96	-22	90	88
COC(=O)C1CCN(C(=O)C(C)(C)C)CC1	98	-1	100	96
Cc1cc(C(=O)CC#N)c(C)n1-c1cccc(C(F)(F)F)c1	/	1	106	98
COc1ccccc1NC(=O)Cn1c(=O)oc2cc(S(=O)(=O)NCc3ccccc3)ccc21	110	-7	100	65
N#Cc1ccc(OC(C(F)(F)F)C(F)(F)F)cc1C#N	103	-49	71	59
COCc1cc(C)nc2c1C(=O)NC(c1ccc(Br)cc1)N2Cc1ccccc1 (stereo not drawn)	105	-20	107	92
COC(=O)C1C2C=CC3(CN(c4ccccc4OC)C(=O)C13)O2 (stereo not drawn)	96	-10	91	81
Cc1ccccc1OCc1nnc(SCC(=O)Nc2sc(C)c(C)c2C#N)n1-c1ccccc1	99	-29	100	94
COc1ccc(C(=O)Nc2nc(-c3nnn(-c4ccc(F)cc4F)c3C)ns2)cc1	97	/	96	82
CCCCNC(=O)c1cc(-c2ccc(OC)cc2)nc2n[nH]c(-c3cccc([N+](=O)[O-])c3)c12	99	/	118	73
COc1ccc(-c2nc3cccc(C)n3c2NCc2ccco2)cc1OC	100	-22	102	75
Cc1ccc(Cn2c(C)c3cnn(CC(=O)N4CCCCCC4)c(=O)c3c2C)cc1	101	1	95	85
Cc1ccc(NC(=O)C2CCCN(S(=O)(=O)c3ccc(F)cc3)C2)cc1 (stereo not drawn)	93	-24	90	91
COc1ccc(NCc2nc3ccccc3n2CCOc2ccccc2)cc1	102	/	95	41
O=C(O/N=C1/CCCc2occc21)c1ccccc1	106	-8	98	93
COc1cccc(C(=O)Nc2nc3c(s2)CCCC3)c1	98	9	84	68
COC(=O)c1ccc(NC(=O)COC(=O)c2ccc3c(c2)OCCO3)cc1	/	-7	111	97
Cc1cccc(C)c1NC(=O)c1c(-c2ccccc2Cl)noc1C	101	-1	/	/
CCOc1ccccc1NC(=O)CSc1cn(CC(=O)N2CCCCCC2)c2ccccc12	105	/	111	91
CC1=C(C(=O)Nc2ccccc2C)C(c2ccncc2)n2nc(SCc3ccccc3)nc2N1 (stereo not drawn)	99	-20	144	86
CCC(C)NC(=O)CSCc1nnc(C(=O)Nc2ccc(OC)cc2)s1 (stereo not drawn)	104	14	/	/
CC(C)(C)C(=O)Nc1cc(C(F)(F)F)cc(C(F)(F)F)c1	97	-1	108	85
c1ccc(Cc2nn3cnnc3s2)cc1	104	-12	103	87

3 entries out of the list, ordered by SMILES length, ascending.
SMILES	GIV Gai3 FP	HCMV NEC inh	Sa growth inh	Sa growth inh second temp
Cc1[nH]nc(N)c1C#N	96	-22	90	88
O=c1cc(-c2ccccc2)nc(Cc2c(Cl)cccc2Cl)[nH]1	100	-6	111	97
COc1ccc(OC)c(-c2cc(C(=O)NCCCn3ccnc3)no2)c1	102	-10	103	86

The list goes on.
SMILES	GIV Gai3 FP	HCMV NEC inh	Sa growth inh	Sa growth inh second temp
O=C(NCC1CCCO1)Nc1ccccc1 (stereo not drawn)	103	-6	109	81
CCc1nc2ccccc2n1CCO	95	-13	101	89
CC(=O)N(C)c1nc(N)n(-c2ccccc2)n1	/	2	114	86
CCC1Nc2ccccc2-c2nnc(SC)nc2O1 (stereo not drawn)	101	/	113	70
CNC(=O)NC(=O)CSc1cc(C)c2ccccc2n1	/	-3	98	98
CCn1c(CN2CCOCC2)nc2cc(NC(=O)c3ccc([N+](=O)[O-])cc3)ccc21	97	-102	106	96
CSc1nc2n(n1)C(C(C)C)C(C(=O)Nc1ccccc1)=C(C)N2 (stereo not drawn)	99	/	103	78
O=C(CSc1ccc(-c2cccs2)nn1)NCCc1ccccc1	99	/	87	85
CC1=C(C(=O)Nc2ccc(C)cc2C)C(c2ccccc2C)n2ncnc2N1 (stereo not drawn)	97	/	95	90
Cc1nonc1C(=O)N/N=C/C(C)C	97	-12	90	92
O=C(NC1CCCC1)C1CCCN(C2=NS(=O)(=O)c3ccccc32)C1 (stereo not drawn)	/	-31	71	96
O=C(CCN1C(=O)c2ccccc2Sc2ncccc21)NCc1ccccc1	106	/	88	93
Cc1ccc(Cl)cc1N1CCN(C(=O)CN2C(=O)COc3ccc(C(C)(C)C)cc32)CC1	101	/	77	80
COc1ccc(N2CCN(C(=O)C(c3ccccc3)c3ccccc3)CC2)cc1	/	-30	70	92
Cc1occc1-c1nnc(SCC(=O)NCCc2nc3ccccc3[nH]2)o1	106	14	/	/
CCn1cc(CN(C)C(=S)Nc2ccc(S(=O)(=O)Nc3ncccn3)cc2)c(C)n1	103	-2	64	99
COc1cc(/C=C2/C(C)=C(C#N)c3nc(N)c(C#N)c(C)c32)ccc1OCc1ccc(C(=O)O)cc1	104	30	/	/
COc1ccc(C(=O)Nc2ccncc2)c(OC)c1	/	10	117	92
COc1ccc(OCC(=O)NCCc2csc(-c3ccccc3)n2)cc1	100	-8	/	/
CCOc1ccc(NC(=O)c2cc3c(C)nn(-c4ccccc4)c3s2)cc1	107	-5	95	92
CCN(CC)C(=O)Oc1ccccc1	103	-76	114	76
Cc1cc(N(C)C)c(C#N)c(N2CCCCC2)n1	103	10	94	95
Cc1nc2c(cnn2C(C)C)cc1C(=O)O	/	21	107	102
CC(=O)Nc1c(-c2ccc(F)cc2)nc2ccccn12	113	/	99	97
O=C(CSc1nc2ccccc2[nH]1)c1ccccc1	/	-4	104	71
COc1ccc(OCC(=O)N2CC(OCc3ccc(Cl)cc3)C2)cc1	102	-25	/	/
Cc1cc(Cc2c(O)nc(SCc3ccccc3)[nH]c2=O)ccc1OC(C)C	104	/	131	101
Cc1cc(N2CCCCC2)nc2ccc(NC(=O)c3ccc(F)cc3)cc12	100	-29	91	87
CN(C)c1ncc(NS(=O)(=O)c2cc(F)ccc2F)cc1C(=O)O	98	-2	/	/
O=C(c1ccc2c(c1)OCCO2)N1CCN(c2ccc([N+](=O)[O-])cc2)CC1	102	-50	/	/
N#CC(c1c(Cl)cccc1Cl)N1CCSCC1 (stereo not drawn)	98	-12	122	38
COc1ccc(OCC(=O)Nc2noc(-c3ccc(Cl)cc3)n2)cc1	98	-6	/	/
CCC(C)c1ccccc1NC(=O)C1CCCO1 (stereo not drawn)	107	-2	90	97
Cc1ccc(C(=O)NCC#N)cc1	/	-24	100	88
O=C(c1ccco1)c1cn(CCOc2ccc(Cl)cc2)c2ccccc12	101	-11	90	82
CN(C)S(=O)(=O)Nc1ccc(OCc2ccccc2)cc1	99	-11	112	96
NC(=O)c1ccccc1CCc1ccccc1	101	0	105	99
CCOC(=O)c1cc(OC(=O)c2ccc(Cl)nc2)cc(C(=O)OCC)c1	/	-8	104	97
CCCCC(=O)Nc1cc(OC)c(OC)cc1C(=O)O	111	-34	92	81
Cc1sc2nc3c4ccccc4c(NCCO)nn3c(=O)c2c1C	103	/	120	81
C(=N\n1c(-c2ccco2)csc1=NCCc1ccccc1)/c1ccco1	/	-20	62	69
Cc1cc(N2CCOCC2)nc([S+]2CCCC2)n1	103	3	96	87
NC(N)=Nc1nc(-c2ccccc2)c2ccccc2n1	105	/	82	12
CCOc1cc(C(=O)Nc2c3c(nn2-c2ccc(OC)cc2)CSC3)cc(OCC)c1OCC	107	4	/	/
CCC(C(=O)N1CCCC1)n1c(C(=O)OC)cc2sccc21 (stereo not drawn)	105	/	129	90
O=C(Cc1cccc2ccccc12)Nc1ccc(-n2cnnn2)cc1	/	-31	116	83
COc1cc(C2NC(=O)NC(C)=C2C(=O)OCCc2ccccc2)cc(Br)c1O (stereo not drawn)	111	-2	/	/
Cc1nnc(SCC(=O)N(CC(C)C)C2CCS(=O)(=O)C2)s1 (stereo not drawn)	/	-14	91	92

By substructure: the compounds so far with a nitro group on carbon
SMILES	GIV Gai3 FP	HCMV NEC inh	Sa growth inh	Sa growth inh second temp
Cc1ccc(C2=N/C(=C\C(Br)=C\c3ccccc3)C(=O)O2)cc1[N+](=O)[O-]	103	-56	/	/
CCCCNC(=O)c1cc(-c2ccc(OC)cc2)nc2n[nH]c(-c3cccc([N+](=O)[O-])c3)c12	99	/	118	73
CCn1c(CN2CCOCC2)nc2cc(NC(=O)c3ccc([N+](=O)[O-])cc3)ccc21	97	-102	106	96
O=C(c1ccc2c(c1)OCCO2)N1CCN(c2ccc([N+](=O)[O-])cc2)CC1	102	-50	/	/

Compound activity as filed in PubChem BioAssay.
